PINK1 expr mod: changes PINK1 expression; AID 624263; PINK1 immunofluorescence, high-content cytometry, 24 h; Potency, µM (highest dose often 76.6 µM), for inactives: at the highest dose activation (PINK1 increase), most hits filed as activators; 410,000 tested, 0.2% active; active = well fitted activation curve with a large enough effect; inconclusive = small, poorly fitted or top-dose-only effect; inactive = flat fitted curve, though single readings scatter; cell line not stated here;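 also: potency is read from the fitted curve at half-maximal effect; % of control where 0% means no effect; nearly all actives have a fitted effect of over 65% in size; a mitochondrial uncoupler was the plate control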
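Readout is PINK1 immunofluorescence, quantified alongside mitochondrial, cell and nuclear markers by laser-scanning microplate cytometry. Cells from a stable line were exposed to compound titrations (5 concentrations) for 24 hours, with CCCP controls.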
Six1-Eya2 blk: blocks human Six1 binding to Eya2. 360,000 tested, 0.56% active. activity change, % (no concentration beside the values). AlphaScreen GST-Six1/His-Eya2 binding, biochemical; active compounds read low; control for the full effect not named in the record. Q15475+O00167; in the data active = activity change below about -65%; inconclusive = about -30% to -65%; inactive = above about -30%; also: % is scaled to controls: 0 for no effect and ±100 for the full control effect
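Six1/Eya2 binding was read as AlphaScreen signal after compounds were pinned into GST-Six1 plus His-tagged Eya2 (5X stock 250/500 nM) in pH 8.0 Tris/NaCl/TCEP buffer, beads added, then incubated 1 h, 37 C, dark.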
D2 ag: activates the human D2 dopamine receptor. P14416. DiscoveRx PathHunter D2 beta-arrestin, luminescence, 90 min; 100% = 57 uM dopamine signal. activation, % (no concentration beside the values). 360,000 tested, 0.084% active. AID 624465; in the data active = activation above about 40%; inconclusive = about 15% to 40%; inactive = below about 15%; also: compound concentration not given in the record; the text of the record calls up to 30% inactive
Target sequence (P14416 whole entry, looked up): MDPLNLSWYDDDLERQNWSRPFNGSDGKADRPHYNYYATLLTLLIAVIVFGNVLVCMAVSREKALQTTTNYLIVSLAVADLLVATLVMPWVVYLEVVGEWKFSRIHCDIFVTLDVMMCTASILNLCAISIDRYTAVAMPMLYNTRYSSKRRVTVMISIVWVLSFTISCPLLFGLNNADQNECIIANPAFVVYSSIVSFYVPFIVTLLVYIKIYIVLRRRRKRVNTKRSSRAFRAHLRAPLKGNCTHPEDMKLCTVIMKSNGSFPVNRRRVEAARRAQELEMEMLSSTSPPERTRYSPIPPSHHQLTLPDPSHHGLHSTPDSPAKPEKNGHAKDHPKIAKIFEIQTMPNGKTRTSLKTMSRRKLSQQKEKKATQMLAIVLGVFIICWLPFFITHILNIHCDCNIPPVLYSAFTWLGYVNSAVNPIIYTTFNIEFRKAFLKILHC
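DiscoveRx PathHunter D2 beta-arrestin cells (2,100/well) attached overnight, then compound-stimulated 90 min at 37 C in HBSS/10 mM HEPES/0.1% Tween-20 buffer; beta-galactosidase complementation read by luminescence after 1 h at ambient temperature. Dopamine 57 uM final (EC100) as control.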
TRPML1 agonist: agonists of human TRPML1 channel. activation, % (test concentration not listed). TRPML1-expressing cells, Ca2+ dye fluorescence, FDSS; host cell line not named in the record; reference of the full effect not given here. 410,000 tested, 0.12% active; in the data active = activation above about 50%; inconclusive = about 30% to 50%; inactive = below about 30%; also: 0% is about no effect; the text of the record puts the active cut at 80%
Target sequence (Q9GZU1 whole entry, looked up): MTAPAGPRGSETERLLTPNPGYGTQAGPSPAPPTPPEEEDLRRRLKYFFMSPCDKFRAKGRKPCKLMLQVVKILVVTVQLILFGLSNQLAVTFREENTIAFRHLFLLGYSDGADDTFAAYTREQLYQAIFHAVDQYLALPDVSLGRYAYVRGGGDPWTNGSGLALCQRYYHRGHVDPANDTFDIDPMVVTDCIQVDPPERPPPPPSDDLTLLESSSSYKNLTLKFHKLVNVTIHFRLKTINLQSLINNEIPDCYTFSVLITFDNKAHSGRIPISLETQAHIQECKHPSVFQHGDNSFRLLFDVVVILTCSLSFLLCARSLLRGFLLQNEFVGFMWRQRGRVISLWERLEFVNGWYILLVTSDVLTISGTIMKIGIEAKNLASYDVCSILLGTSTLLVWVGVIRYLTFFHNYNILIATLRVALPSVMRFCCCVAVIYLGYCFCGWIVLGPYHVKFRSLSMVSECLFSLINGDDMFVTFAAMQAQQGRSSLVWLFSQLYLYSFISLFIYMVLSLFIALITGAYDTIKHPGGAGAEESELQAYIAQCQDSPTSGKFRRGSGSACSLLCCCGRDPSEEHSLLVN
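Kinetic FDSS Ca2+ read in Tet-induced TRPML1-DL cells (ABD Ca8 dye plus quencher, 45-90 min RT loading): baseline, then compound, then 110 s agonist window; EC80 agonist 54-4 at 4uM final added afterwards for a 110 s antagonist window.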
TRPML1 blocker: blocks the human TRPML1 channel; Q9GZU1; TRPML1-inducible cells, Ca2+ dye fluorescence, FDSS; active compounds read low; inhibition of EC80 agonist-evoked calcium signal; AID 624415; activity change, negative = inhibition, % (test concentration not listed); 390,000 tested, 0.02% active; in the data active means activity change below about -50%; inconclusive means about -30% to -50%; inactive means above about -30%;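 also: stimulus is agonist 54-4 at its EC80 concentration; % is scaled to controls: 0 for no effect and ±100 for the full control effect; compound concentration not given in the record; the text of the record puts the active cut at -80%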
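Tet-induced TRPML1-DL cells loaded with Ca8 no-wash calcium dye were read kinetically on FDSS. Compound addition was followed by EC80 agonist 54-4 (4 uM final); inhibition was read over 110 s.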
D2 PAM: positive allosteric modulators of human D2 dopamine receptor; P14416; DiscoveRx D2 beta-arrestin cells, luminescence, 90 min; 100% = 57 uM dopamine signal; potentiation, % (test concentration not listed); 360,000 tested, 0.23% active; AID 624464; active = potentiation of 50% or more; inconclusive = 30% to 50%; inactive = 30% or less;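 also: compound concentration not given in the record; tested on top of an EC20 dose of dopamine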
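PathHunter D2 cells, attached overnight at 37 deg C, received compound in DMSO plus dopamine at EC20 (50 nM final) for 90 min at 37 deg C. Beta-arrestin recruitment was read as luminescence after 1 h with detection reagent at ambient temperature.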
* marks the source's active call; other numbers are inactive results; u = inconclusive; x = no result given; & = joins results of further samples; [ ] = dose if it differs, or a comment.

SMILES	PINK1 expr mod	Six1-Eya2 blk	D2 ag	TRPML1 agonist	TRPML1 blocker	D2 PAM
CCOC(=O)/C(C(N)=NCCCO)=C(/O)c1ccccc1	14µM*	6	0.5	0.5	9	-8
Cc1cccc(N2CCN(C(=O)c3ccc4c(c3)N(Cc3cccc(Cl)c3)C(=O)c3ccccc3S4=O)CC2)c1C (configuration not stated)	5.0%	x	x	0.6	-5	x
CC(C)NC(=O)C1CCCN(c2ncnc3c2nc2n3CCCCC2)C1 (configuration not stated)	1.7%	x	x	-0.9	-4	x
CC1(C)S[C@@H]2[C@H](NC(=O)C(NC(=O)N3CCNC3=O)c3ccccc3)C(=O)N2[C@H]1C(=O)O (some centres not stated)	-2.2%	9	-10	0.2	-5	-2
c1ccc(Nc2nc(NCC3CCCO3)c3ccccc3n2)cc1 (configuration not stated)	8.2%	6	-1.8	-0.8	3	-10
COc1ccc(C(=O)NC(=S)NNC(=O)c2ccco2)cc1	1.0%	-9	-8.6	0.6	1	-9
CSc1ncccc1C(=O)Nc1ccc(S(=O)(=O)Nc2nccs2)cc1	-0.2%	1	-0.3	0.8	-18	-2
Cc1cc(C(=O)Nc2cccc(S(=O)(=O)N3CCOCC3)c2)c2ccccc2n1	6.7%	-2	0.3	0.0	12	-2
N#CN=C(c1ccccc1)c1ccccc1	2.2%	10	-0.1	-0.5	3	-4
CCN1CCN(c2cc(C)c3cc(NC(=O)c4cnccn4)ccc3n2)CC1	2.3%	3	-2.0	-0.6	-6	-11
CCCOc1ccc(C(=O)Nc2c[nH]c(=O)[nH]c2=O)cc1	-0.7%	7	3.2	-0.1	-13	5
CCOc1ccc(N2C=Nc3ccc(OCC)cc3C2)cc1	0.9%	-11	-6.0	1.8	4	-10
CCOC(=O)C1CCCN(c2c(Nc3cccc(C)c3)c(=O)c2=O)C1 (configuration not stated)	0.4%	3	-2.4	-0.7	-3	-11
Cc1cccc(C(=O)NC(=S)NCc2ccccc2)c1	2.8%	-24	-6.3	1.9	7	-8
FC(F)Oc1cccc2cccnc12	1.3%[38.3 µM]	-5	1.3	0.0	-9	-10
CC(=O)N1CCOc2ccc(S(=O)(=O)NCc3ccc(C)cc3)cc21	0.4%	0	0.3	1.5	8	-22
CCOC(=O)C1(C)CCCN(C(=O)c2ccc(-c3ccccc3)cc2)C1 (configuration not stated)	1.5%	11	-5.6	-0.4	59	-5
c1ccc(-c2cccc(-c3ccccc3)n2)cc1	15%	36	-2.3	1.2	-15	-7
COc1ccc(-c2c(C)nn(-c3ccccc3)c2N)cc1OC	4.4%[38.3 µM]	-6	-2.8	0.9	-7	-5
CCOc1ccc(N(CC(=O)Nc2ccccc2Cl)S(C)(=O)=O)cc1	2.7%	0	3.8	0.9	7	-24
COc1cc(C=O)ccc1OCC(=O)Nc1ccccc1N1CCOCC1	5.6%	-1	-0.8	1.0	-8	-15
S=C(Nc1ccc(Cl)cc1Cl)NC1CCN(Cc2ccccc2)CC1	3.5%	-3	-1.5	-0.6	-21	-28
Clc1cccc(/C=N/Nc2nnc(Cl)c3ccccc23)c1	x	u	-0.7	0.9	-8	-9
COc1cccc(CC(NC(C)=O)C(=O)NC2CCN(C(=O)c3ccncc3)CC2)c1OC (configuration not stated)	0.2%	-5	-1.6	-0.1	-1	-10
O=C(O)c1c[nH]c2c([N+](=O)[O-])cccc2c1=O	-1.4%	-10	0.9	-0.3	4	0
CC(=O)N1CCN(S(=O)(=O)c2ccc(S(=O)(=O)N3CCCC(C)C3)cc2)CC1 (configuration not stated)	-0.1%	2	-1.6	-0.1	19	-5
CCCN(CCC)C(=O)c1ccc2c(c1)N(Cc1ccccc1)C(=O)CS2=O (configuration not stated)	2.1%	3	-6.3	0.7	21	-3
CN(C)CCCN(C(=O)COc1ccc(Cl)cc1)c1nc2ccc(F)cc2s1	15%	-2	-2.0	0.4	-7	-20
CNC(=O)Cn1nc(-c2ccc(Cl)cc2)c2ccccc2c1=O	2.1%&4.8%	7	3.9	1.2&-0.1	-7&6	2
O=C(OCc1ccccc1)c1c(-c2ccccc2)oc2c1C(OCCO)CCC2 (configuration not stated)	0.6%	-8	x	-0.2	x	x
COC(=O)c1cc(NC(=O)c2ccc(-c3ccccc3)cc2)ccc1Cl	4.3%	4	-6.7	-0.1	31	-12
COc1ccc2[nH]c3c(c2c1)CCn1c-3nc2ccccc2c1=O	-1.3%	2	-2.1	0.2	23	-9
Cc1ccc(-c2nn(CC(=O)NCc3ccccc3)c3c2cnc2ccc(F)cc23)cc1C	0.7%	x	x	0.1	6	x
O=C(Nc1cccc(Cl)c1)N1Cc2ccccc2Oc2ncccc21	1.3%	x	x	0.8	11	x
CSc1cccc(NC(=O)CCS(=O)(=O)c2cccc3nonc23)c1	-0.1%	-3	-5.8	0.2	27	-11
CN(C(=O)C1CCCO1)c1nnc(-c2ccncc2)s1 (configuration not stated)	-0.6%	-1	-5.6	-0.2	-6	-9
CN(C)S(=O)(=O)c1cc(C(=O)Nc2ccn(C)n2)c(Cl)cc1Cl	-0.5%	3	7.6	1.9	-23	-3
Nc1nc(CSc2nnnn2-c2ccccc2)nc(Nc2ccccc2)n1	u	0	8.8	-0.6	x	5
COCCNc1nc2nonc2nc1NC(C)c1ccccc1Cl (configuration not stated)	u	-3	0.7	0.6	-11	-7
CCCCOC(=O)c1ccc(NC(=O)c2ccc3c(c2)CCN3S(C)(=O)=O)cc1	-1.0%	x	x	1.0	-21	x
Cc1cc(O)c(C(C)C)cc1C1(c2cc(C(C)C)c(O)cc2C)OC(=O)c2ccccc21	-1.0%	-15	u	-0.7	3	8
COc1cccc(/C(O)=C/c2nc3ccc(C(=O)NCCc4cccc(C)c4)cc3[nH]c2=O)c1	u	0	1.4	16	-8	10
COc1ccc2[nH]c3c(c2c1)CCN1C(=O)C(CC(=O)NCCc2ccccn2)C[C@H](C(=O)N2CCCCC2)[C@@]31C (some centres not stated)	0.0%	-2	-2.5	-1.1	-8	-11
Cc1noc(C)c1COc1ccc(C(=O)N2CCN(S(=O)(=O)c3ccccc3)CC2)cc1	1.4%	-2	0.7	-1.8	-10	8
[O-][n+]1onc2c1CCc1c-2nn(-c2ccccc2Cl)[n+]1[O-]	-1.9%[38.3 µM]	-2	1.2	0.4	13	2
COc1ccc(OC)c(NC(=O)CSc2nnc(C3CCCCC3)o2)c1	1.9%	13	-3.3	0.3	-26	-7
Cc1nnc(NC(=O)c2ccc3ccccc3c2)s1	1.2%	4	4.4	0.3	-15	-4
CC1(c2ccccc2Cl)NC(=O)N(CC(=O)Nc2ccccc2OC(F)F)C1=O (configuration not stated)	-0.3%	7	0.6	0.4	-7	0
CCc1ccc(O)c(-c2cc(C(=O)Nc3cccnc3)[nH]n2)c1	2.4%	-4	-3.1	x	x	-10
Cc1occc1C(=O)NCc1ccco1	-0.4%	-5	-1.0	0.9	5	13
CC1=C(C(=O)N2CCCCCC2)CC(CC(=O)NCc2cccs2)C(=O)N1CCC1=CCCCC1 (configuration not stated)	0.0%	0	x	-0.5	x	x
CC1CC(C)CN(C(=O)Nc2ccccc2F)C1 (configuration not stated)	0.0%	2	0.5	-0.5	-1	-2
O=C(Nc1ccc(O)cc1)c1ccc(NC(=O)c2ccco2)cc1	4.3%	1	-0.5	0.0	-5	4
O=C(c1ccco1)N1CCN(Cc2cccc([N+](=O)[O-])c2)CC1	0.6%	2	-2.3	-0.1	4	-3
O=C(Cc1cccs1)Nc1ccc(-c2nnc(-c3ccccc3)o2)cc1	9.8%	1	-3.2	-1.3	2	8
CCC(=O)Nc1nc2ccccc2n1CCN(CC)CC	20%[38.3 µM]	2	-3.0	0.9	-7	-20
Cc1ccc2oc(C(=O)N3CCC(O)(c4cccc(C(F)(F)F)c4)CC3)c(C)c2c1	11%	0	1.5	1.5	-1	-3
COc1ccc(C2=NOC(CN3C(=O)c4ccccc4S3(=O)=O)C2)cc1 (configuration not stated)	7.5%	0	-4.8	2.3	-2	4
CC(=O)c1cc(NC(=O)c2cccc(C(F)(F)F)c2)c(=O)oc1C	0.6%	0	-15	0.8	-11	-9
COCCNC(=O)c1sc2ncccc2c1-n1c(C)ccc1C	1.1%	x	x	0.8	19	x
Continued.
SMILES	PINK1 expr mod	Six1-Eya2 blk	D2 ag	TRPML1 agonist	TRPML1 blocker	D2 PAM
COc1ccc(-c2nnc(SCC(=O)c3cccs3)o2)c(OC)c1	-2.9%[38.3 µM]	-11	-0.6	1.9	0	-8
CCCCN=CC1=C(O)C(C(=O)OC)C(C)(C)CC1=O (configuration not stated)	1.9%	16	-0.3	-0.4	57	8
Cc1cc(C)n(CCNc2nc3nonc3nc2N2CCCCC2)n1	-0.8%	-7	-2.1	-0.4	-15	-6
CCS(=O)(=O)N1CCC(c2nc(-c3ccc(C(F)(F)F)cc3)no2)CC1	0.5%[38.3 µM]	2	-3.5	1.4	-3	-1
O=C(Cc1cccc(Cl)c1)Nc1ccc(Br)cc1	7.5%	4	-2.2	-0.9	12	5
O=S(=O)(NCc1csc(-c2cccs2)n1)c1cccc(C(F)(F)F)c1	1.1%	5	-2.9	2.9	25	-4
CC(=O)Nc1ccc([N+](=O)[O-])c(CS(=O)(=O)c2ccc(C)cc2)c1[N+](=O)[O-]	1.9%	-1	-2.2	0.1	-21	u
COc1ccc(OCC(O)CNCCOc2ccccc2OC)c(C(C)(C)C)c1 (configuration not stated)	-0.7%	-26	2.5	3.7	1	-10
CC(=O)C1CCC2C3CCC4=CC(=O)CC[C@]4(C)[C@@]3(F)C(O)C[C@]12C (some centres not stated)	4.9%	4	1.8	-0.8	7	-2
c1coc(CN2CNc3nc4ccccc4n3C2)c1	1.2%	9	1.1	0.4	-19	19
O=C(NCc1ccccc1)C1CCCN(C(=O)NCc2ccccc2)C1 (configuration not stated)	3.7%	10	4.1	2.3	-18	2
C/C(=N\NC(=O)c1ccc(Cl)cc1)c1cccs1	6.4%	20	-0.7	0.3	82	-12
C/C(CC(=O)NCCCN1CCOCC1)=N\NC(=O)COc1ccc(C)cc1	2.5%	6	-5.4	0.4	-8	0

Complete entries, looked up by structure. Screens in order: PINK1 expr mod | Six1-Eya2 blk | D2 ag | TRPML1 agonist | TRPML1 blocker | D2 PAM
COc1ccc(-c2nnc(SCC(=O)c3cccs3)o2)c(OC)c1 is entered as -2.9%[38.3 µM] | -11 | -0.6 | 1.9 | 0 | -8
O=C(NCc1ccccc1)C1CCCN(C(=O)NCc2ccccc2)C1 (configuration not stated) is entered as 3.7% | 10 | 4.1 | 2.3 | -18 | 2
O=C(Cc1cccc(Cl)c1)Nc1ccc(Br)cc1 is entered as 7.5% | 4 | -2.2 | -0.9 | 12 | 5
CCCCN=CC1=C(O)C(C(=O)OC)C(C)(C)CC1=O (configuration not stated) is entered as 1.9% | 16 | -0.3 | -0.4 | 57 | 8
Cc1cc(C)n(CCNc2nc3nonc3nc2N2CCCCC2)n1 is entered as -0.8% | -7 | -2.1 | -0.4 | -15 | -6

Assay outcomes from PubChem.
